MLL AF4-AF9 inh: inhibitors of human MLL-AF4/AF9 interaction. inhibition, % at 10 µM. AlphaScreen, biotin-AF4 peptide binding to FLAG-AF9. 350,000 compounds, 0.47% hits. P42568. AID 651704;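 active = every replicate reaching a set inhibition limit, whatever the replicate mean, cut at about 25% in these data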;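 also: 0% = plate neutral control median and 100% = total signal loss; the record names both 10 and 1 µM as test concentration; the first replicate is given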
Target sequence (P42568 whole entry, looked up): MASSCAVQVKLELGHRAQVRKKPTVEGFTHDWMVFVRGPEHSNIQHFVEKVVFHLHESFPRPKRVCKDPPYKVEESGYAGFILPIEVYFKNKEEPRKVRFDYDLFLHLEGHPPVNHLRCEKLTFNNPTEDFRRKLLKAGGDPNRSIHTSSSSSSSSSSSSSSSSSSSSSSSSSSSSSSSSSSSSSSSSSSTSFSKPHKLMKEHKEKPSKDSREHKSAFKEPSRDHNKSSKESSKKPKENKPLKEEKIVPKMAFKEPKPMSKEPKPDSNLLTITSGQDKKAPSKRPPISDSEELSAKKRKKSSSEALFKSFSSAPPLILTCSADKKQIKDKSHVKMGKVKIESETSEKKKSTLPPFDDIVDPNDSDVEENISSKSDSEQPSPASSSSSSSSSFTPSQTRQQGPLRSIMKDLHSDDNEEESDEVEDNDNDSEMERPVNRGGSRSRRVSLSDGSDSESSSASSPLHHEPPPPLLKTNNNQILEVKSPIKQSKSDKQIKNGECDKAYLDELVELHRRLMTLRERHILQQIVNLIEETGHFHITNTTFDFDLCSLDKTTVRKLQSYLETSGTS
FGF22 binding: binders of recombinant human FGF22 by thermal shift; Q9HCT0; SYPRO orange fluorescence; percent of sucrose octasulfate shift, DMSO zero; calls only at 9.99 µM; 340,000 compounds, 1.5% hits;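 active = melting point raised past a set limit in the mean and every replicate; three in four hits are not shown here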
Target sequence (Q9HCT0 whole entry, looked up): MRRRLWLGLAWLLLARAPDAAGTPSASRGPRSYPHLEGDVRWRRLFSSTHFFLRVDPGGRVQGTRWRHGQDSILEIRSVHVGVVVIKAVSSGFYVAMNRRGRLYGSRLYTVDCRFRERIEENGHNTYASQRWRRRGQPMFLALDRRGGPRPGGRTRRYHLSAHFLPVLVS
Active calls of the source: *; i = inactive; + = active, no number. An excerpt. The share of hits here may be higher or lower than overall.

Sample of the layout, 5 compounds:
canonical_smiles	MLL AF4-AF9 inh	FGF22 binding
COC(=O)C(CC#Cc1ccc2c(c1)[C@]1(C(=O)N2)[C@H](C(=O)N2CCN(c3ncccn3)CC2)[C@H]2C(=O)O[C@H](c3ccccc3)[C@H](c3ccccc3)N2[C@@H]1c1ccc(OCCO)cc1)C(=O)OC	0.8	i
COc1ccc(S(=O)(=O)N(C)C[C@@H]2Oc3cc(C#CC4CCCCC4)ccc3S(=O)(=O)N([C@H](C)CO)C[C@@H]2C)cc1	-0.5	i
Cc1noc(C)c1S(=O)(=O)Nc1ccc2c(c1)C(=O)N([C@@H](C)CO)C[C@H](C)[C@@H](CN(C)CC1CCCCC1)OCCCC[C@@H](C)O2	21.5	i
Cc1noc(C)c1NC(=O)Nc1ccc2c(c1)C(=O)N([C@@H](C)CO)C[C@H](C)[C@H](CN(C)Cc1ccc(C(=O)Nc3ccccc3N)cc1)O2	-0.2	i
C[C@@H]1CN([C@@H](C)CO)C(=O)c2cc(C#C[C@@H](C)O)cnc2O[C@H]1CN(C)Cc1cccc(F)c1	-1.5	i

The listing, from the start:
canonical_smiles	MLL AF4-AF9 inh	FGF22 binding
COC(=O)C(CC#Cc1ccc2c(c1)[C@]1(C(=O)N2)[C@H](C(=O)N2CCN(c3ncccn3)CC2)[C@H]2C(=O)O[C@H](c3ccccc3)[C@H](c3ccccc3)N2[C@@H]1c1ccc(OCCO)cc1)C(=O)OC	0.8	i
COc1ccc(S(=O)(=O)N(C)C[C@@H]2Oc3cc(C#CC4CCCCC4)ccc3S(=O)(=O)N([C@H](C)CO)C[C@@H]2C)cc1	-0.5	i
Cc1noc(C)c1S(=O)(=O)Nc1ccc2c(c1)C(=O)N([C@@H](C)CO)C[C@H](C)[C@@H](CN(C)CC1CCCCC1)OCCCC[C@@H](C)O2	21.5	i
Cc1noc(C)c1NC(=O)Nc1ccc2c(c1)C(=O)N([C@@H](C)CO)C[C@H](C)[C@H](CN(C)Cc1ccc(C(=O)Nc3ccccc3N)cc1)O2	-0.2	i
C[C@@H]1CN([C@@H](C)CO)C(=O)c2cc(C#C[C@@H](C)O)cnc2O[C@H]1CN(C)Cc1cccc(F)c1	-1.5	i
OC[C@@H]1[C@@H](c2ccc(-c3ccc(F)cc3)cc2)[C@@H]2CN(CCC(F)(F)F)CCCCN12	7.6	i
CC(C)NC(=O)Nc1ccc2c(c1)C(=O)N([C@@H](C)CO)C[C@H](C)[C@@H](CN(C)S(=O)(=O)c1cn(C)cn1)OCCCC[C@@H](C)O2	-0.8	i
C[C@H]1CCCCO[C@@H](CN(C)C(=O)Nc2ccc3c(c2)OCO3)[C@@H](C)CN([C@@H](C)CO)C(=O)c2cc(NS(C)(=O)=O)ccc2O1	-1.1	i
C[C@H](CO)N1C[C@H](C)[C@H](CN(C)Cc2cccnc2)Oc2ncc(-c3ccc(F)cc3)cc2C1=O	-10.1	i
COc1ccc(S(=O)(=O)N(C)C[C@@H]2OCCCC[C@H](C)Oc3ccc(NS(C)(=O)=O)cc3C(=O)N([C@H](C)CO)C[C@@H]2C)cc1	-1.8	i
C[C@H]1CN([C@@H](C)CO)C(=O)c2cc(NC(=O)C3CCCCC3)ccc2O[C@H]1CN(C)Cc1ccc(C(=O)O)cc1	-4.3	i
CCCN1C[C@H](C)[C@@H](OC)CN(C)C(=O)c2cc(NS(=O)(=O)c3ccccc3)ccc2OC[C@H]1C	-0.6	i
C[C@H](CO)N1C[C@H](C)[C@@H](CN(C)C(=O)c2ccncc2)Oc2ncc(C#CC3CCCCC3)cc2C1=O	3.3	i
O=C(N[C@@H]1CC[C@@H](CCn2cc(C3(O)CCCC3)nn2)O[C@@H]1CO)C1CC1	-0.2	i
CC(C)(C)[S@@](=O)N1Cc2cc(C(=O)NCCc3ccncc3)nc(-c3cccc(-c4ccccc4)c3)c2[C@H]1CCO	2.9	i
COc1ccc(S(=O)(=O)N(C)C[C@@H]2Oc3ccc(NS(=O)(=O)c4cccs4)cc3CC(=O)N([C@@H](C)CO)C[C@@H]2C)cc1	-0.8	i
O=C(Nc1ccc(Cl)cc1)N1C[C@H]2[C@@H](c3ccccc31)[C@H](CO)N2CC1CCCC1	7.4	i
C[C@@H]1CN([C@H](C)CO)C(=O)Cc2cc(NC(=O)Nc3ccc(C(F)(F)F)cc3)ccc2O[C@@H]1CN(C)C(=O)Nc1ccc(C(F)(F)F)cc1	-11.6	i
CNC[C@@H]1Oc2ccc(NC(=O)Cn3cnnn3)cc2C(=O)N([C@@H](C)CO)C[C@H]1C	-0.9	i
CCCc1cn(CC[C@@H]2CC[C@@H](NC(=O)C3CCC3)[C@H](CO)O2)nn1	-1.7	i
C[C@H]1CN([C@@H](C)CO)S(=O)(=O)c2ccc(/C=C/c3ccccc3)cc2O[C@H]1CN(C)C	11.4	i
Cc1cc(C(=O)Nc2cccc3c2O[C@@H](CN(C)CC2CCCCC2)[C@H](C)CN([C@@H](C)CO)C3=O)n(C)n1	-16.1	i
C[C@@H]1CCCCO[C@H](CN(C)C(=O)Nc2ccc(F)cc2)[C@@H](C)CN([C@@H](C)CO)C(=O)c2cc(NC(=O)Nc3ccc(C(F)(F)F)cc3)ccc2O1	-10.3	i
C[C@@H]1CCCCO[C@@H](CN(C)C(=O)CCCN(C)C)[C@@H](C)CN([C@@H](C)CO)C(=O)c2cc(NC(=O)c3ccccc3)ccc2O1	1.5	i
CO[C@H]1CN(C)C(=O)c2ccc(NC(C)=O)cc2OC[C@@H](C)N(Cc2ccc(F)cc2)C[C@@H]1C	2.6	i
COc1ccccc1-c1ccc([C@H]2[C@H](CO)N[C@@H]2C#N)cc1	-0.6	i
C[C@@H](O)C#Cc1cnc2c(c1)C(=O)N([C@@H](C)CO)C[C@H](C)[C@@H](CN(C)Cc1ccccn1)O2	0.4	i
C[C@H](CO)N1C[C@H](C)[C@@H](CN(C)C(=O)Nc2ccc(F)cc2)Oc2c(NS(=O)(=O)c3ccccc3)cccc2C1=O	2.5	i
C[C@@H]1CN([C@@H](C)CO)C(=O)c2c(c3ccccc3n2C)-c2ccccc2CO[C@@H]1CN(C)S(=O)(=O)c1ccsc1	-13.6	i
CO[C@@H]1CN(C)C(=O)c2ccc(NS(=O)(=O)c3cccc(F)c3)cc2OC[C@@H](C)N(C(=O)Cc2cccnc2)C[C@H]1C	-2.6	i
COc1ccccc1NC(=O)N1C[C@H]2[C@@H](c3ccccc31)[C@@H](CO)N2C(C)=O	-1.3	i
CO[C@H]1CN(C)C(=O)c2cc(NS(C)(=O)=O)ccc2OC[C@@H](C)N(CCC(F)(F)F)C[C@@H]1C	-2.8	i
C[C@@H]1CCCCO[C@@H](CN(C)Cc2ccccc2)[C@@H](C)CN([C@H](C)CO)C(=O)c2cc(NC(=O)CCCN(C)C)ccc2O1	2.1	i
CO[C@H]1CN(C)C(=O)c2cc(NS(=O)(=O)c3ccccc3C)ccc2OC[C@H](C)N(C)C[C@H]1C	-0.5	i
COc1ccc(S(=O)(=O)N[C@@H]2CC[C@@H](CC(=O)N3CCC(Cc4ccccc4)CC3)O[C@@H]2CO)cc1	4.1	i
C[C@@H]1CCCCO[C@@H](CN(C)S(=O)(=O)c2cn(C)cn2)[C@H](C)CN([C@H](C)CO)C(=O)c2cc(NC(=O)Nc3cccc4ccccc34)ccc2O1	1.6	i
Cc1noc(C)c1NC(=O)N(C)C[C@@H]1Oc2ccc(NC(=O)Nc3ccc4c(c3)OCO4)cc2CC(=O)N([C@@H](C)CO)C[C@H]1C	-7.3	i
O=C(c1ccccc1F)N1CC2(C1)[C@H](c1ccccc1)[C@H](CO)N2CC1CCOCC1	-1.7	i
CO[C@H]1CN(C)C(=O)c2ccc(NC(C)=O)cc2OC[C@@H](C)N(Cc2ccncc2)C[C@@H]1C	-1.8	i
Cc1nn(C)cc1NC(=O)C[C@H]1CC[C@@H]2[C@@H](COc3ccc(NC(=O)C4CCOCC4)cc3C(=O)N2C)O1	-2.8	i

(continued)
| compound | MLL AF4-AF9 inh | FGF22 binding |
| --- | --- | --- |
| CC(C)C#Cc1ccc2c(c1)O[C@@H](CN(C)C(=O)Nc1ccccc1)[C@H](C)CN([C@H](C)CO)S2(=O)=O | 3.5 | i |
| Cc1noc(C)c1S(=O)(=O)N(C)C[C@@H]1Oc2ccc(NC(=O)Nc3cccc4ccccc34)cc2CC(=O)N([C@@H](C)CO)C[C@@H]1C | -0.2 | i |
| COc1ccccc1C#Cc1ccc2c(c1)O[C@@H](CN(C)Cc1cccnc1)[C@H](C)CN([C@@H](C)CO)S2(=O)=O | 0.5 | i |
| C[C@@H]1CN([C@@H](C)CO)C(=O)Cc2cc(NS(C)(=O)=O)ccc2O[C@@H]1CN(C)S(=O)(=O)c1ccccc1 | -2.5 | i |
| C[C@@H]1CN([C@@H](C)CO)C(=O)Cc2cc(NC(=O)Cc3ccccc3)ccc2O[C@H]1CN(C)S(C)(=O)=O | -1.2 | i |
| CCCN1[C@H](C(=O)NCCCN2CCOCC2)[C@@H](CO)[C@@H]2Cn3c(ccc(-c4ccccc4)c3=O)[C@@H]21 | 1.9 | i |
| C[C@@H]1CN([C@@H](C)CO)C(=O)c2cc(NS(=O)(=O)c3ccc(Cl)cc3)ccc2O[C@@H](C)CCCCO[C@@H]1CN(C)C(=O)NC1CCCCC1 | -1.9 | i |
| CN1C(=O)c2cc(NC(=O)Nc3ccccc3F)ccc2OC[C@@H]2O[C@@H](CC(=O)NCCc3ccncc3)CC[C@@H]21 | -0.4 | i |
| O=C(C[C@H]1CC[C@@H](NC(=O)C2CCOCC2)[C@H](CO)O1)Nc1nccs1 | -1.1 | i |
| C[C@@H]1CCCCO[C@H](CN(C)C(=O)Nc2ccccc2)[C@@H](C)CN([C@H](C)CO)C(=O)c2cc(NS(C)(=O)=O)ccc2O1 | -4.2 | i |
| CO[C@H]1CN(C)C(=O)c2ccc(NS(=O)(=O)c3ccccc3)cc2OC[C@H](C)N(C(=O)NC(C)C)C[C@H]1C | -2.6 | i |
| Cc1noc(C)c1NC(=O)N[C@@H]1CC[C@@H](CC(=O)N2CCCCC2)O[C@@H]1CO | 1.3 | i |
| O=C(C[C@@H]1CC[C@H]2[C@@H](COC[C@@H](O)CN2C(=O)Nc2ccc(Cl)cc2)O1)NCc1ccncn1 | -1.4 | i |
| CO[C@H]1CN(C)C(=O)c2cc(NS(=O)(=O)c3ccc(C)cc3)ccc2OC[C@H](C)NC[C@@H]1C | -1.6 | i |
| C[C@H]1CN([C@@H](C)CO)C(=O)c2cc(NC(=O)Nc3ccc4c(c3)OCO4)ccc2O[C@H]1CN(C)C(=O)Nc1ccc2c(c1)OCO2 | 4.5 | i |
| COc1cccc(CNC(=O)C[C@@H]2CC[C@@H](NC(C)=O)[C@@H](CO)O2)c1 | 1.2 | i |
| CO[C@H]1CN(C)C(=O)c2cc(NC(=O)c3ccccc3F)ccc2OC[C@@H](C)N(C(=O)c2ccccc2F)C[C@H]1C | 2.8 | i |
| CO[C@@H]1CN(C)C(=O)c2cc(NC(=O)Nc3cccc(Cl)c3)ccc2OC[C@H](C)NC[C@@H]1C | 4.9 | i |
| C[C@@H]1CN([C@H](C)CO)C(=O)c2cc(NC(=O)Nc3ccc(C(F)(F)F)cc3)ccc2O[C@H]1CN(C)Cc1ccc(C(=O)Nc2ccccc2N)cc1 | -1.1 | i |
| CCCC#Cc1cnc2c(c1)C(=O)N([C@H](C)CO)C[C@@H](C)[C@H](CN(C)C(=O)c1ccccc1)O2 | -1.9 | i |
| CCC(=O)Nc1ccc2c(c1)C(=O)N(C)C[C@@H](OC)[C@@H](C)CN(C(C)=O)[C@@H](C)CO2 | -0.4 | i |
| C[C@@H]1CN([C@H](C)CO)C(=O)c2cccc(NS(C)(=O)=O)c2O[C@H]1CN(C)Cc1ccc(-c2ccccc2)cc1 | 4.6 | i |
| C[C@H]1CN([C@@H](C)CO)S(=O)(=O)c2ccc(C#Cc3ccccc3F)cc2O[C@H]1CN(C)C(=O)Cc1cccnc1 | 2.6 | + |
| CC(C)(O)C#Cc1ccc([C@@H]2[C@@H](CO)N3CCCCN(C(=O)c4cccc(F)c4)C[C@H]23)cc1 | -5.9 | i |
| COc1cccc(-c2cn(CC[C@@H]3CC[C@@H](NC(C)=O)[C@H](CO)O3)nn2)c1 | -2.9 | i |
| CC(C)CC#Cc1ccc2c(c1)O[C@H](CN(C)Cc1ccncc1)[C@H](C)CN([C@H](C)CO)S2(=O)=O | 6.1 | i |
| C[C@H]1CN([C@@H](C)CO)C(=O)c2cc(NC(=O)NC3CCCCC3)ccc2O[C@@H]1CN(C)CC1CCCCC1 | 0.5 | i |
| C[C@H]1CN([C@@H](C)CO)C(=O)c2cccc(NS(=O)(=O)c3ccccc3)c2O[C@@H]1CN(C)Cc1ccc(Oc2ccccc2)cc1 | -2.1 | i |
| C[C@H]1CCCCO[C@H](CN(C)S(=O)(=O)c2cccs2)[C@@H](C)CN([C@@H](C)CO)C(=O)c2cc(NC(=O)CCCN(C)C)ccc2O1 | 1.3 | i |
| COc1ccc2c3c(n(C)c2c1)[C@H](CO)N(Cc1ccccc1OC)CC31CN(C)C1 | 8.9 | i |
| C[C@H](CO)N1C[C@H](C)[C@H](CN(C)C(=O)Nc2ccc(F)cc2)Oc2ccc(NC(=O)Cn3cnnn3)cc2C1=O | -0.9 | i |
| CCC(=O)N(C)C[C@H]1Oc2ncc(C#CC(C)C)cc2C(=O)N([C@H](C)CO)C[C@@H]1C | -2.8 | i |
| C[C@@H]1CN([C@H](C)CO)C(=O)c2cc(NC(=O)CCCN(C)C)ccc2O[C@@H](C)CCCCO[C@@H]1CN(C)Cc1ccc(C(F)(F)F)cc1 | 5.7 | i |
| C[C@H](CO)N1C[C@H](C)[C@H](CN(C)C(=O)NC2CCCCC2)OCCCC[C@H](C)Oc2ccc(NC(=O)CCCN(C)C)cc2C1=O | -0.2 | i |
| O=C(O)C[C@@H]1CC[C@@H](NC(=O)c2ccccc2F)[C@@H](CO)O1 | -2.3 | i |

From PubChem BioAssay
